Mtb H37Rv = M. tuberculosis H37Rv growth inhibitors, H37Rv strain (AID 1626); M. tuberculosis H37Rv growth inhibition; higher % means a stronger effect; one-dose inhibition, % at 10 µM; IC50 in µM for titrated hits; actives 0.95% (n = 220,000);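 active = confirmed in a dose series; inconclusive = inhibition above 80% but not taken into the dose series; inactive = below 80% or under 30% at every dose of the series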;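 also: bacteria incubated seven days before Alamar blue readout; 0% = bacteria only wells and 100% = bacteria with antibiotic wells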
Mtb bLac sens = beta-lactam sensitization of Mtb H37Rv, H37Rv | M. tuberculosis H37Rv growth with meropenem, percent inhibition; hits of this screen are not shown here | inhibition, % at 25 µM | actives 0.27% (n = 330,000) | AID 434955, 2010;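 active = about 74% or more and at least 40 points above the plate without the antibiotic, then above 30% in a dose series; inconclusive = first-round hits that could not be retested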;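 also: growth measured after seven days incubation then overnight dye step; 0% = bacteria only wells and 100% = bacteria with antibiotic; twin plates without the antibiotic show which effects depend on it; some results filed as inactive read as strong as hits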
YopH inh = YopH tyrosine phosphatase inhibitors, primary screen, biochemical, fluorescence Ex485/Em525 | YopH tyrosine phosphatase [Yersinia enterocolitica] | inhibition, %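 (about 10 µM by stock and volumes)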 | actives 0.16% (n = 140,000);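 active = inhibition of 50% or more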;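 also: controls were vehicle for no effect and minimum signal wells for full effect; inactives centre near -20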
Arbovirus inh = antivirals against arbovirus infection, primary screen, cell-based, full library, 10K replicate subset; inhibition, % at 10 µM; arbovirus infection cell-based antiviral screen; actives 0.37% (n = 200,000);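 active = inhibition from about 30%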;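 also: bluetongue infection of BSR cells; cell survival read as ATP light after 72 h; 0% = infected wells without compound and 100% = uninfected wells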
RecA intein inh = Mtb RecA intein splicing inhibitors, primary screen, biochemical, fluorescence, HTS. Protein RecA (Mycobacterium tuberculosis (strain ATCC 25618 / H37Rv)), P9WHJ3. actives 0.75% (n = 290,000). inhibition, %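 (about 9 µM by stock and volumes)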. AID 2221, 2009. cell-free RecA intein splicing; in the data active = inhibition above about 30%; inconclusive = no clear call, values can overlap the other calls;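 also: 0% = vehicle wells and 100% = reference inhibitor control wells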
Target sequence (P9WHJ3 whole entry, looked up): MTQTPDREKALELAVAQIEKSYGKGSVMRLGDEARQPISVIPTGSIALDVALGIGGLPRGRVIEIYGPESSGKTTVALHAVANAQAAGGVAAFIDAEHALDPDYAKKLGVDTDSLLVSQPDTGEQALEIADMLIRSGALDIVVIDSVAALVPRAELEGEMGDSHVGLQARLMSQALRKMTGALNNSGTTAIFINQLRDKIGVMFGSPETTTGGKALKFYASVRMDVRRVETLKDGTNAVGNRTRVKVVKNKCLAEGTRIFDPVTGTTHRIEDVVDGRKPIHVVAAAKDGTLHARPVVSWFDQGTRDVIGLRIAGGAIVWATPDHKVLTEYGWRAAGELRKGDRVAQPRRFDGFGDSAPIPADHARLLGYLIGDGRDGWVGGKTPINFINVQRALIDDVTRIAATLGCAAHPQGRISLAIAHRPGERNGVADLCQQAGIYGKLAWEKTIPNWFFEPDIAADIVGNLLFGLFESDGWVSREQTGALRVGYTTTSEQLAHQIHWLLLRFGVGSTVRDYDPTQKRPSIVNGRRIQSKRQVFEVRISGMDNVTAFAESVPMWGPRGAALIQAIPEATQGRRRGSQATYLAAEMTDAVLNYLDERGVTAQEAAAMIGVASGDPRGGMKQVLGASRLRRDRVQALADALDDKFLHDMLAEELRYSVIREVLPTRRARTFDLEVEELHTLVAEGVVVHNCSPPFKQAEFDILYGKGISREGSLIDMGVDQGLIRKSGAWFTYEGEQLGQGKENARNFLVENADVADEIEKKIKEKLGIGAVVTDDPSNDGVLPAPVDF
Arbovirus inh repeat = second read-out of Arbovirus inh, no call of its own (marks repeat the call); inhibition, %; measured here: 10K subset replicate screen; many hits read low in the repeat;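 first of two repeat runs on a subset; 0% = infected and 100% = uninfected wells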
* = called active by the depositor; ? = inconclusive; . = no result given.

SMILES	Mtb H37Rv	Mtb bLac sens	YopH inh	Arbovirus inh	RecA intein inh	others
C=CCn1c(Oc2ccccc2F)nc2c1c(=O)n(C)c(=O)n2C	.	-8	.	.	0.5
O=C(O)Cc1ccc2c(c1)N(S(=O)(=O)c1cccc(C(F)(F)F)c1)CC(C(=O)O)O2 (stereo not drawn)	-16%	-2	-35	6	.
CCNS(=O)(=O)c1ccc(NS(=O)(=O)c2cc(C)ccc2C)cc1	-3%	1	-14	2	1.6
Cc1noc(NS(=O)(=O)c2ccc(NC(=O)C(CC(C)C)N3C(=O)c4ccccc4C3=O)cc2)c1C (stereo not drawn)	-10%	-9	.	.	2.2
CCc1nc(SCC(=O)N2CCCC2)c2ccccc2n1	-7%	4	-2	0	5.6
Cc1cccc(Nc2nc(-c3ccc(F)c(C)c3)cs2)n1	.	23	.	.	4.6
Cn1nc(C(F)(F)F)cc1C(=O)Nc1ccc(-c2ccno2)cc1	.	2	.	.	2.7
CCOC(=O)C1=C(C)NC(C)=C(C(=O)OCC)C1C(=O)OCC(=O)NCCc1ccc(S(N)(=O)=O)cc1	.	-1	.	.	-0.5
CCC1CCCCN1C(=O)Cn1nc([N+](=O)[O-])c(Cl)c1C (stereo not drawn)	-7%	2	.	-1	-1.5
COc1ccc(OCC(=O)NC(=S)Nc2ccc(N3CCOCC3)c(Cl)c2)cc1	-3%	-14	-18	5	2.4
CC(C)Sc1nc(N)c2c3c(sc2n1)CN(C)CC3	.	-5	-18	-3	-6.5	Arbovirus inh repeat=0
COc1ccccc1NC(=S)Nc1ccccn1	3%	-3	-11	0	7.6
Cc1ccc(C(=O)C2CCNCC2)cc1	0%	-7	-1	10	-3.4
CN(/C=C/C(=C\C=[N+](C)c1ccccc1)OCCCS(=O)(=O)[O-])c1ccccc1	-10%	6	.	8	-5.2
CC1CN(c2ccc(Cl)nn2)CC(C)O1 (stereo not drawn)	-2%	1	.	3	0.2
CC1CSC(N(C(=O)c2ccc(S(C)(=O)=O)cc2)c2ccc(Cl)cc2)=N1 (stereo not drawn)	.	67	.	.	1.3
CCCC(=O)N1CCN(c2ccc(NC(=O)c3ccc(N4CCCC4)c([N+](=O)[O-])c3)cc2Cl)CC1	.	89	.	.	-0.5
O=C(c1ccccc1)C(C(=O)N1CCCCC1)n1ccccc1=O (stereo not drawn)	2%	-5	.	5	-0.8
Cc1ccc(C(C)C)c(OCCCCCN2CCOCC2)c1	.	4	.	.	1.4
Cc1onc(-c2ccccc2)c1C(=O)N=C(N)c1ccc(Cl)cc1	-3%	-6	.	.	1.7
O=C(CCCN1C(=O)c2ccccc2C1=O)Nc1nncs1	-21%	-11	-36	11	-1.3
COc1ccc(C)cc1-n1nnnc1SCc1nc2ccccc2s1	.	-7	-16	11	3.7
O=C(Nc1cccc(-c2cn3cccnc3n2)c1)Nc1ccccc1F	-4%	-9	.	-4	1.3
Cc1cn(C(=O)c2ccccc2)c(=S)n1-c1ccc(Cl)cc1	12%	19	14	-17	-0.1
COc1ccc(CCNC(=O)c2cc(C3CC3)on2)cc1OC	2%	-4	.	.	0.4

Sorted by molecular weight (rising): seven of the compounds above
SMILES	Mtb H37Rv	Mtb bLac sens	YopH inh	Arbovirus inh	RecA intein inh	others
COc1ccc(CCNC(=O)c2cc(C3CC3)on2)cc1OC	2%	-4	.	.	0.4
Cn1nc(C(F)(F)F)cc1C(=O)Nc1ccc(-c2ccno2)cc1	.	2	.	.	2.7
Cc1onc(-c2ccccc2)c1C(=O)N=C(N)c1ccc(Cl)cc1	-3%	-6	.	.	1.7
O=C(Nc1cccc(-c2cn3cccnc3n2)c1)Nc1ccccc1F	-4%	-9	.	-4	1.3
COc1ccc(C)cc1-n1nnnc1SCc1nc2ccccc2s1	.	-7	-16	11	3.7
CN(/C=C/C(=C\C=[N+](C)c1ccccc1)OCCCS(=O)(=O)[O-])c1ccccc1	-10%	6	.	8	-5.2
COc1ccc(OCC(=O)NC(=S)Nc2ccc(N3CCOCC3)c(Cl)c2)cc1	-3%	-14	-18	5	2.4

(cont.)
SMILES	Mtb H37Rv	Mtb bLac sens	YopH inh	Arbovirus inh	RecA intein inh	others
O=C1c2oc3ccccc3c(=O)c2C(c2cccs2)N1CCCN1CCOCC1 (stereo not drawn)	-6%	-1	-16	-1	2.0
O=Cc1ccc(OCC(=O)N2CCOCC2)cc1	-7%	6	.	-1	0.3
CCOc1ccc(N(CC(=O)NC2CCCCC2)C(=O)CCC(=O)Nc2ccccn2)cc1	.	-3	.	.	-1.4
CCCOc1ccc(N2C(=O)CC(N3CCC(c4nncn4CC)CC3)C2=O)cc1 (stereo not drawn)	3%	16	-8	1	-14
CC(=O)Nc1ccc(C2NC(=O)c3ccccc3O2)cc1 (stereo not drawn)	-9%	?	-35	3	-0.2
COc1ccc(CN2C(=O)c3ccccc3C2=O)cc1C(=O)OCC(=O)NC1CCCCC1	-3%	-15	-52	-4	6.1
CC(=NCCc1c(C)[nH]c2ccc(C)cc12)C1=C(O)CC(c2ccccc2)CC1=O (stereo not drawn)	14%	9	-11	-16	4.9
Cc1ccc(C(=O)n2c(-c3ccccc3)cnc2SCC(=O)Nc2ccccc2)cc1	7%	-2	-29	1	6.6
O=C(Nc1ccc2ccccc2c1)c1ccc(Cl)cc1	.	-5	.	.	-0.9
CSc1nc(SCCO)c2sc3nc(-c4ccco4)c4c(c3c2n1)CC(C)(C)OC4	.	.	-41	6	3.8
CCc1cc2c(N=Nc3c(O)[nH]c4ccccc34)ncnc2s1	-7%	8	-19	7	-0.4
Cn1ncc([N+](=O)[O-])c1C(=O)Nc1ccc(-c2nc3ccccc3o2)cc1	-1%	4	.	4	-0.6
COC(=O)C(Cc1c[nH]c2ccccc12)NC(=O)c1cncc(Br)c1 (stereo not drawn)	.	-5	.	.	4.9
Cc1ccc(S(=O)(=O)N2CCC(C(=O)N[C@@H](C)C(=O)Nc3ccc(F)cc3)CC2)cc1	.	4	.	.	0.5
CC1=C(C(N)=O)C(c2cccnc2)n2nc(-c3cccc(C)c3)nc2N1 (stereo not drawn)	-12%	13	0	3	-3.0
C=CCOc1ccc(CNn2cn[nH]c2=S)cc1	-10%	2	-2	7	-6.2
COc1cccc(C(=O)Nc2ccc(Cl)c(C(F)(F)F)c2)c1	-17%	6	-2	-23	8.3
CCCN1CCC(=NNc2ccc(C(=O)O)cc2)CC1	4%	-9	.	-6	1.2
O=C(N/N=C/c1ccc(-c2ccccc2[N+](=O)[O-])o1)[C@H]1C[C@@H]1c1ccccc1	6%	18	-13	-17	42*
Cc1ccccc1NC(=S)NC1CCN(Cc2ccccc2)CC1	-1%	-9	-7	5	0.3
Cc1oc(S(=O)(=O)N2CCCC2)cc1C(=O)Nc1ccccc1	-7%	-10	.	.	.
Cc1ccc(S(=O)(=O)N(C)C)cc1-n1c(SCC(=O)Nc2ccccc2)nc2ccccc2c1=O	2%	4	-17	2	11
c1ccc2c(c1)nc(N1CCCCCC1)c1ccccc12	4%	11	.	.	17
CC(=O)c1ccc(NC(=O)Cc2cccs2)cc1	.	4	.	.	5.4
Cc1c(C(=S)NC(=O)C2CC2)c(=O)n(-c2ccccc2)n1C	-6%	-5	.	-3	0.6
Remaining list, next part.
SMILES	Mtb H37Rv	Mtb bLac sens	YopH inh	Arbovirus inh	RecA intein inh	others
O=C(c1ccco1)N1CCN(Cc2nc3ccccc3c(=O)n2-c2ccc(F)cc2)CC1	16%	0	-19	4	1.1
O=C(Cn1cnc2ccc(Cl)cc2c1=O)c1cccs1	-8%	-8	-27	-2	1.0
COc1ccccc1NS(=O)(=O)c1cc(NC(=O)c2ccc3ccccc3n2)ccc1Cl	-1%	1	-23	-1	-0.3
Cc1ccccc1NC(=O)c1ccc2ccccc2c1	.	2	.	.	1.2
Cc1nn(C)cc1/C=N/n1nnnc1N	-6%	-3	-11	2	-1.0
O=C(NNS(=O)(=O)c1ccccc1)c1cccnc1	-11%	-3	.	.	-4.8
c1cc(-c2cc3cc(N4CCOCC4)ccc3o2)cs1	-3%	-5	.	.	2.3
CC1CCCC(C(=O)O)N1C(=O)CCSC(=O)c1ccccc1 (stereo not drawn)	5%	-11	-41	2	1.4
O=C(NC1CCS(=O)(=O)C1)OC1CCCCC1 (stereo not drawn)	-7%	-7	-32	4	-3.5
Cn1cc(S(=O)(=O)Nc2ccc(OC(F)(F)F)cc2)c(=O)n(C)c1=O	6%	-2	.	.	-6.1
CCc1ccccc1N(C(C)=O)c1nc(CCl)cs1	-2%	0	.	-1	4.0
CCCC(=O)NC1=C(C#N)C2(CCCCC2)Cc2ccccc21	-9%	-6	-5	5	-2.5
Cc1ccc(C)c(NC(=O)N2CCCCCC2)c1	.	1	.	.	0.3
COc1ccccc1C1/C(=C(/O)c2ccc(C)cc2)C(=O)C(=O)N1CC(C)O (stereo not drawn)	8%	9	-1	11	-1.8
O=C(NNc1cccc(Cl)n1)Nc1ccccc1	-14%	-4	-51	3	1.0
Cc1ccc(N2C(=O)c3ccc(C(=O)O)cc3C2=O)cc1C	-9%	51	-19	6	2.0
O=C(Cc1ccccc1)N[C@@H](Cc1ccccc1)C(=O)O	1%	-7	.	4	-1.0
Cc1cc(C)cc(NS(=O)(=O)c2ccc3[nH]cc(C(=O)N4CCc5ccccc54)c(=O)c3c2)c1	3%	14	-28	-2	4.8
Cc1ccc2nc(C)cc(C(=O)N/N=C/c3ccncc3)c2c1	.	-16	.	.	-1.7
CC(NC(=O)C12CC3CC(CC(C3)C1)C2)C(=O)N/N=C/C1=C(N2CCOCC2)C(=C\c2cccc([N+](=O)[O-])c2)/CC1 (stereo not drawn)	16%	-4	-2	-16	0.0
O=C1CC(c2ccc(F)cc2)c2cc3c(cc2N1)CCC3 (stereo not drawn)	14%	48	0	6	3.3
CC(C)c1ccccc1NC(=O)c1cccc(NC(=O)c2ccccc2)c1	-5%	7	1	3	9.3

Structural class: the entries above with a CF3 group.
SMILES	Mtb H37Rv	Mtb bLac sens	YopH inh	Arbovirus inh	RecA intein inh	others
O=C(O)Cc1ccc2c(c1)N(S(=O)(=O)c1cccc(C(F)(F)F)c1)CC(C(=O)O)O2 (stereo not drawn)	-16%	-2	-35	6	.
Cn1nc(C(F)(F)F)cc1C(=O)Nc1ccc(-c2ccno2)cc1	.	2	.	.	2.7
COc1cccc(C(=O)Nc2ccc(Cl)c(C(F)(F)F)c2)c1	-17%	6	-2	-23	8.3
Cn1cc(S(=O)(=O)Nc2ccc(OC(F)(F)F)cc2)c(=O)n(C)c1=O	6%	-2	.	.	-6.1

High-throughput results as filed in PubChem BioAssay.

These rows are one share of the data; rates above refer to the full screens.
